KSHV LANA nucl = inhibitors of KSHV LANA-nucleosome binding, primary screen, biochemical, fluorescence polarization, FITC-LANA1-23, chicken nucleosomes. FITC-LANA1-23 / chicken nucleosome fluorescence polarization; active compounds read low. z-score (no concentration beside the values). 51,000 tested, 0.3% active. AID 720717, 2013;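 active means both repeat wells score below -2 in polarization z-score versus plate sample wells, excluding overly bright wells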;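 further: 100 nL library stock added to about 30 µL; numbers are from one replicate; some results filed as inactive read as strong as hits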
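Material: Purified chicken nucleosomes with FITC-labelled LANA N-terminal peptide (1-23) | Reagent: 50 nM FITC-LANA1-23 probe | Medium: TEN-BT buffer, pH 7.5 | Times: 10–45 min incubation at room temperature | Detection: Fluorescence polarization | Replication: Duplicates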
Ab BasE inh = BasE siderophore enzyme inhibitors, primary screen, biochemical, Acinetobacter baumannii ATCC 17978, fluorescence polarization | AID 485350, 2010 | inhibition, % (no concentration beside the values) | purified BasE, fluorescence polarization binding displacement | 84,000 tested, 0.1% active;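 active means both replicates above 25% with normal brightness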;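 further: 0% = negative plate control signal and 100% = positive plate control signal; stock transfer was 100 nL into about 30 µL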
* marks the source's active call; other numbers are inactive results; . = not tested or not shown. A portion of the library; rates above refer to the full screens.

The opening 5 compounds (preview)
mol	KSHV LANA nucl	Ab BasE inh
Cc1ccc(NC(=O)NCCCN2CCC(N3CCCCC3)CC2)cc1C	0.9	-0.2
CCS(=O)(=O)c1nc(S(=O)(=O)c2ccc(Cl)cc2)c(NCC2CCCO2)s1 (configuration not stated)	-0.091	-0.4
OC(CNC1CCCC1)COc1ccc(OCC(O)CNC2CCCC2)cc1 (configuration not stated)	0.019	-27
COC(=O)C1CCN(C(=O)C2c3ccccc3Oc3ccccc32)CC1	0.67	-1.5
O=C(Nc1ccc(Br)cc1)c1ccc2c3c(onc13)-c1ccccc1C2=O	-0.57	0.4

Results (from the top)
mol	KSHV LANA nucl	Ab BasE inh
Cc1ccc(NC(=O)NCCCN2CCC(N3CCCCC3)CC2)cc1C	0.9	-0.2
CCS(=O)(=O)c1nc(S(=O)(=O)c2ccc(Cl)cc2)c(NCC2CCCO2)s1 (configuration not stated)	-0.091	-0.4
OC(CNC1CCCC1)COc1ccc(OCC(O)CNC2CCCC2)cc1 (configuration not stated)	0.019	-27
COC(=O)C1CCN(C(=O)C2c3ccccc3Oc3ccccc32)CC1	0.67	-1.5
O=C(Nc1ccc(Br)cc1)c1ccc2c3c(onc13)-c1ccccc1C2=O	-0.57	0.4
CC1=CC(=C2C(=O)NC(=O)NC2=O)C=C(C)N1CCN1CCOCC1	-0.36	2.4
O=C1NC(=S)NC(=O)C1=Cc1cccc(O)c1Cl	0.55	4.0
C/C(=C(/C#N)P(=NN=Nc1ccccc1)(N1CCOCC1)N1CCOCC1)N1CCCC1	.	-1.5
CC1(C)CCC2=C(O1)c1ccccc1C(=O)C2=O	0.3	2.3
O=P1(c2ccccc2)C=Cn2c1cc1c2CCCC1 (configuration not stated)	.	4.5
Cc1ccc(CN(C)CC(=O)NC(C)C23CC4CC(CC(C4)C2)C3)o1 (configuration not stated)	.	0.5
O=S(=O)(c1ccc(-n2nnc3ccccc32)nc1)N1CCCCC1	.	-0.7
CCNc1nc2n(c(=O)n1)CCN2CC	-0.49	1.2
CCCC(=O)Nn1cnc2c(c1=O)C1(CCCC1)Cc1ccccc1-2	.	-3.0
O=C(Nc1cccc(S(=O)(=O)c2cccc(NC(=O)c3ccco3)c2)c1)c1ccco1	2.5	-6.5
N/C(Cc1ccc(Cl)cc1)=N\O	-0.15	-0.5
CC1CCC(NC(=O)CCCn2c3ccccc3c3cn[nH]c(=O)c32)CC1 (configuration not stated)	-1.6	-1.8
CC(C)c1ccc2[nH]c(O)c(N=NC(=O)c3ccccc3O)c2c1	.	4.8
CCOC(=O)c1c(C)nn(C)c1C	-0.15	.
CCN1C(=O)c2ccc(C(=O)NCC(C)C)cc2C1=O	-0.82	0.0
CC1CN(C(=O)/C=C/c2ccco2)C(C)CN1C(=O)/C=C/c1ccco1 (configuration not stated)	-0.69	1.1
COc1ccc2c(c1)C1(Nc3ccccc3-c3nc4ccccc4n31)C(=O)N2C (configuration not stated)	0.49	2.1
c1ccc(CNCCSc2nnnn2-c2ccccc2)cc1	-0.92	-0.4
CC(NC(=O)CSc1nc(N)cc(N)n1)C12CC3CC(CC(C3)C1)C2 (configuration not stated)	.	1.0
Cc1c(C)c(C)c(CSc2ccccn2)c(C)c1C	.	1.9
Nc1ccc2c3c(cccc13)C(=O)C=C2	.	17
Cc1ccc(NNC(=S)NCC2CCCO2)c(C)c1 (configuration not stated)	.	1.4
NNC(=O)c1cccc(COc2ccc(C3SCCS3)cc2)c1	.	-2.8
COc1ccccc1CC1(C)NC(=O)N(CC(=O)c2ccc3c(c2)OCO3)C1=O (configuration not stated)	.	-0.9
CC(C)(C)NCC(=O)Nc1cc(C(C)(C)C)nn1-c1ccccc1	.	1.8
CC(=O)N1CCc2cc(C(=O)CN3CCN(Cc4ccccc4)CC3)ccc21	-0.14	-0.8
CC(C)N1CN=C2SC(CO)(CO)C(=O)N2C1	0.66	-0.2
COc1ccc(S(=O)(=O)N(C(C)=O)c2ccc3oc(=O)sc3c2)cc1	0.23	-2.3
CCNC(=S)N1CCn2cccc2C1c1ccc(C)cc1 (configuration not stated)	-0.81	-0.3
CCn1cnc2cc(NS(=O)(=O)c3ccc(C)cc3)ccc21	.	0.4
Cc1[nH]c2ccc(C(=O)NC(C)C)cc2c1C	0.25	-1.6
CN1CCN(CC(=O)N2c3ccccc3Sc3ccc(Cl)cc32)CC1	-0.18	-4.1
C=CCn1c(SCC(=O)O)nnc1-c1ccc(Cl)cc1Cl	.	1.6
Cc1ccc2nc(-c3ccc4nc(N)sc4c3)oc2c1	1.1	-30
O=C1OCc2cc(-n3[nH]nnc3=S)ccc21	0.4	2.0
Cc1cc(C(=O)NCc2ccco2)c2ccccc2n1	.	0.3
S=c1[nH]c(-c2ccccc2)c(-c2ccccc2)o1	.	1.7
CCC(=O)NC(C)C12CC3CC(CC(C3)C1)C2 (configuration not stated)	-0.46	2.4
Cn1c(=O)c2c(ncn2CC(O)CN2CCN(c3ncccn3)CC2)n(C)c1=O (configuration not stated)	1.1	1.4
O=C(C1c2ccccc2Oc2ccccc21)N(Cc1nnc(-c2ccccc2Cl)o1)C1CC1	.	0.5
CC(C)(C)S(=O)(=O)c1cnc(-c2cnccn2)nc1N	.	2.4
COc1ccc(OCC(=O)Nc2cc(OC)ccc2NC(=O)c2ccco2)cc1	0.57	0.5
Cc1csc(NC(=O)c2c(O)c3cccc4c3n(c2=O)CCC4)n1	-0.79	4.4
O=C(COc1ccccc1)OCC(=O)c1ccc(O)cc1O	.	1.4
O=C(CC1SC(=NCC2CCCO2)NC1=O)Nc1cccc2ccccc12 (configuration not stated)	.	0.7
O=C(COC(=O)c1ccccc1NCc1ccco1)c1ccc(Cl)cc1	.	0.8
CC(C)(C)NC(=O)NCc1n[nH]c(=O)c2ccccc12	-0.32	1.6
CC(C(=O)Nc1ccc(F)cc1Cl)N(C)CC1COc2ccccc2O1 (configuration not stated)	.	2.7
O=C(c1cccnc1)N1CCN(CCN2C(=O)C3C4C=CC(C4)C3C2=O)CC1 (configuration not stated)	0.22	0.9
COc1cc(/C=C2\NC(=S)N(C)C2=O)ccc1OCc1ccccc1Cl	.	3.2
CCCN(Cc1nnc(-c2ccco2)o1)C(=O)c1ccccc1SCC(=O)N1CCCC1	.	1.1
O=c1[nH]c(=S)[nH]c(O)c1N=Nc1ccc(O)cc1	2.2	-17
CCOC(=O)C1=C(C)NC(SCC(N)=O)=C(C#N)C1c1ccccc1 (configuration not stated)	.	3.0
CSc1nc2ccccc2n1CN1CCN(Cc2cccs2)CC1	.	1.9
CC(=O)N/C(N)=N/c1nc2ccccc2s1	0.36	1.5

Continued.
mol	KSHV LANA nucl	Ab BasE inh
Cc1cnc(Nc2nc3ccccc3o2)nc1C(=O)Nc1cccc(C(F)(F)F)c1	0.26	1.1
Fc1cccc(F)c1-c1nnc(-c2ccccc2OC(F)(F)F)o1	0.062	-1.1
CSc1nc2ccc(NC(=O)c3ccccc3-n3cnnn3)cc2s1	.	-4.3
Cc1ccc(C(=O)N2CCN(C(=O)c3ccccc3)C2)cc1	.	0.1
N#C/C(=C\c1cccnc1)C(N)=S	-0.96	-0.7
C=CCNC(=O)c1ccccc1SC	-1.6	-0.1
COc1ccc(OC)c(NC(=O)C(CC(=O)O)Cc2ccc(C)cc2)c1 (configuration not stated)	0.8	2.6
CCC(C)NC(=O)CSC1=Nc2ccccc2C2=NC(c3ccccc3)C(=O)N12 (configuration not stated)	-0.21	2.3
CC(C)NC(=O)c1oc2ccccc2c1CSC1=NCCS1	.	0.5
O=C(CSc1nnc2ccccn12)NC(=O)NC1CCCC1	.	1.0
Cc1cc(C=C(C(N)=O)C(N)=O)c(C)cc1C=C(C(N)=O)C(N)=O	.	15
CC(C)(C)NC(=O)NCc1ccncc1	.	2.9
N/C(=N\OC(=O)c1ccccc1F)c1ccccc1	-0.67	-2.5
O=C(Cc1c(Cl)cccc1Cl)NCCSc1n[nH]c(=O)[nH]c1=O	.	0.7
N#Cc1ccsc1NC(=O)c1cc(Cl)sc1Cl	1.3	-1.6
C[n+]1ccc(/C=C/c2ccccc2F)c2ccccc21	.	1.2
Cc1ccc2sc(NC(=O)/C=C/C(=O)O)nc2c1	-0.26	3.2
N=C1c2ccccc2C(=O)C1c1ccccc1 (configuration not stated)	1.2	-3.4
O=C(COc1ccc(-n2cnnn2)cc1)NC(=O)NCc1ccccc1	.	0.6
COc1cc(NC(=O)CSC)cc(OC)c1	1.6	-3.2

Other entries follow:
Screens in order – KSHV LANA nucl, Ab BasE inh
c1ccc(Nc2ncnc3sc4c(c23)CCCC4)cc1
 : ., 2.2
CC(NC(=O)COc1ccc(-c2nnco2)cc1)c1ccc(Cl)cc1Cl (configuration not stated)
 : ., -3.2
CC(C)C(NC(N)=O)C(=O)Nc1cccc2ncccc12 (configuration not stated)
 : ., 3.0
CCN1CCN(c2ccc(N3CCN(C(=O)c4ccc(C(F)(F)F)cc4)CC3)nn2)CC1
 : 1.2, -0.1
N=c1sccn1CC(=O)NCCc1ccc(Cl)cc1Cl
 : ., -1.8
Cc1ccc(-c2csc(N/N=C/c3ccco3)n2)cc1
 : 1, -2.5
CCCCn1c(CCCN2C(=O)c3ccccc3C2=O)nc2ccccc2c1=O
 : 0.36, -2.3
CCOc1ncccc1C(=O)NCCc1c[nH]c2ccccc12
 : ., 0.8
CC1(C)CC2CC(C)(CN2C(=O)CSc2nnc(-c3cccs3)n2N)C1 (configuration not stated)
 : ., -1.3
CC(=O)Nc1cc(C(C)C)c(O)c(C(C)C)c1
 : 0.21, -1.7
CCOC(=O)C1=C(CSc2nnc(C3CCCCC3)n2N)NC(=O)NC1c1ccccc1 (configuration not stated)
 : ., 0.5
CCN(CC)S(=O)(=O)c1ccc(/C=C/C(=O)OCC(=O)N2CC(C)OC(C)C2)cc1 (configuration not stated)
 : ., 1.9
O=C1CC(C(=O)Nc2ccc(Cl)c(Cl)c2)NC(=NCc2ccco2)N1 (configuration not stated)
 : -2.4, 2.0
CSc1nn2ccc(-c3cccc(C(F)(F)F)c3)nc2c1C#N
 : 0.64, .
CCN1/C(=C(/O)c2ccccc2)C(=O)c2ccccc2S1(=O)=O
 : ., 2.6
Cc1ccc(NC(=O)CCn2c(=O)sc3ccccc32)cc1F
 : -0.86, 18
CN(C)c1ccc(/C=N/OCC(=O)N(C)c2ccccc2)cc1
 : ., -2.6
Cn1c(=O)c2c(SCCN3CCOCC3)nc(-c3ccccc3Cl)nc2n(C)c1=O
 : 0.94, -1.0
CCn1c(-c2ccc3c(c2)OCCO3)cnc1SCC(=O)NC(=O)NCc1ccco1
 : ., 3.1
CCCn1nnc(NC(=S)NC(=O)c2ccc(-c3cc(Cl)ccc3Cl)o2)n1
 : ., 1.1
CN1/C(=C\C(=O)c2ccccc2)c2ccccc2CC1(C)C
 : 0.62, 1.2
NC(=O)c1cnn2c(-c3ccc(Cl)cc3Cl)ccnc12
 : 2.5, .
CSc1sc(C(=O)NN)c2c1C=CCC2
 : ., 2.2
C=CCN(CC=C)C(=S)Nc1ccc2nsnc2c1
 : ., -0.3
O=C(O)CCC(=O)NCc1cccc(Oc2ccccc2)c1
 : -1.5, 2.0
O=C(O)c1cccc2[nH]c3c(c12)CCCC3
 : 0.58, 2.0
CN1CCN(c2ccccc2C=C(C(=O)O)C(=O)O)CC1
 : -0.57, 0.8
CC(=O)N1N=C(c2ccc(C)cc2)OC1c1cccnc1 (configuration not stated)
 : -0.29, 4.0
COc1ccc(-n2c(C)cc(C(=O)COc3ccc(-n4cnnn4)cc3)c2C)cc1
 : ., -0.4
Cc1ccc(S(=O)(=O)NNC(=S)Nc2ccccc2)cc1
 : -0.51, 0.0

An excerpt from above in order of their number in KSHV LANA nucl, highest first.
Molecule	KSHV LANA nucl
CSc1nn2ccc(-c3cccc(C(F)(F)F)c3)nc2c1C#N	0.64
O=C(O)c1cccc2[nH]c3c(c12)CCCC3	0.58
CC(=O)Nc1cc(C(C)C)c(O)c(C(C)C)c1	0.21
Cc1ccc(S(=O)(=O)NNC(=S)Nc2ccccc2)cc1	-0.51

Copied from the list.
`CN1/C(=C\C(=O)c2ccccc2)c2ccccc2CC1(C)C` in KSHV LANA nucl is entered as 0.62
`Cc1ccc(-c2csc(N/N=C/c3ccco3)n2)cc1` in KSHV LANA nucl is entered as 1
`N=c1sccn1CC(=O)NCCc1ccc(Cl)cc1Cl` in Ab BasE inh is entered as -1.8
`CC1(C)CC2CC(C)(CN2C(=O)CSc2nnc(-c3cccs3)n2N)C1` (configuration not stated) in Ab BasE inh is entered as -1.3
`C=CCN(CC=C)C(=S)Nc1ccc2nsnc2c1` in Ab BasE inh is entered as -0.3
`CCCCn1c(CCCN2C(=O)c3ccccc3C2=O)nc2ccccc2c1=O` in KSHV LANA nucl is entered as 0.36

The results go on.
Screens in order – KSHV LANA nucl, Ab BasE inh
O=C1c2ccccc2C(=O)N1CCCCSc1nnc(-c2ccc(OC(F)F)cc2)o1
 : ., 1.2
CCN(Cc1ccncc1)Cc1c(O)ccc2ccccc12
 : ., -1.8
Cc1nn(-c2ccccc2)c(C)c1CN(C)CC(=O)Nc1ccccc1C#N
 : ., 0.5
COc1ccc(NC2CC(O)C(CO)O2)cc1 (configuration not stated)
 : -0.16, -0.1
COc1cc2[nH]c(=O)c(C(=O)NCCN3CCNCC3)c(O)c2cc1OC
 : 0.83, -2.8
COc1cccc(-c2nn(Cc3ccccc3)cc2C(=O)N(C)CC(=O)NCc2ccco2)c1
 : ., 0.6
COc1ccc(-c2csc(C3=C(O)CN(CC(C)(C)CN(C)C)C3=N)n2)cc1OC
 : ., -1.8
Cc1cc(C(=O)CN2C(=O)NC(Cc3c[nH]c4ccccc34)C2=O)c(C)n1C (configuration not stated)
 : ., 2.0

Screens deposited in PubChem BioAssay by ICCB-Longwood Screening Facility, Harvard Medical School.
